Assay outcomes: PubChem BioAssay, several laboratories
MT1-MMP act inh = blocks activation of human MT1-MMP | GFP/RFP ratio change, % at 20 µM | HT1080 RFP-PRO-GFP cells, GFP/RFP ratio fluorescence, overnight; percent of plate control window, DMSO zero | P50281 | 0.061% of 360,000 active | AID 651647;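 active means GFP/RFP ratio change of at least 30% with cell ATP level not reduced by more than half and red fluorescence within 50% of control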; further: strong numbers were not always called active
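system = RFP-PRO-GFP reporter HT1080 cells | dosing = 20 µM single dose, 1% DMSO | timing = overnight cell settling, then overnight compound exposure, 37 °C, 5% CO2 | read-out basis = GFP/RFP fluorescence ratio | controls = DMSO and RFP-L50D-GFP cell wells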
Env fusion inh = blocks HIV Env-driven cell-cell fusion. HeLa-JRFL Env/CEM21 cell fusion, luciferase. inhibition, % at 12.3 µM. 1.1% of 360,000 active. AID 651610;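 active means mean replicate inhibition score of at least 50 and every replicate individually at or above 50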;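 further: 0% = plate neutral controls and 100% = maraviroc near 300 nM; one replicate is shown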
MT1-MMP act inh RFP = also measured in MT1-MMP act inh; calls as there; RFP signal change, %; measured here: RFP expression control read;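 0 = vehicle wells; hits needed this value within 50% of zero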
Numbers without * were called inactive; i = inactive. These rows are one share of the data (hit frequency here may not be typical).

structure	MT1-MMP act inh	MT1-MMP act inh RFP	Env fusion inh
COC1CC2C=C(C)C=CC=CC(=O)NC(c3ccccc3)CC=CCCC(O)CC(=O)C2=C1O (centres undefined)	-3	-31	92*
CN1CN(c2ccccc2)C2(CCN(CCCSc3ccccc3NC(=O)/C=C/c3ccccc3)CC2)C1=O	-15	-6	-169
CCC1(c2ccc(C)cc2)C(=O)NC(=S)NC1=O	-1	4	3
NC(=O)c1c(Br)n(C2OC(CO)C(O)C2O)c2ncnc(N)c12 (centres undefined)	-13	-5	71*
CC1C(=O)OC2CCN3CC4OC4(COC(=O)C(C)(O)C1(C)O)C23 (centres undefined)	-3	2	-1
CC(O)C1C=CC=CC(=O)OC2CC3OC4C5OC5(C)C(O)CC4(COC(=O)C(O)C(C)CCO1)C2(C)C31CO1 (centres undefined)	-44	-40	70*
CC(=O)OC(C)(C)/C=C/C(=O)C(C)(O)C1C(O)CC2(C)C3CC=C4C(CC(O)C(=O)C4(C)C)C3(C)C(=O)CC12C (centres undefined)	-36	-27	65*
CC(=O)OC1CC(OC2C(O)CC(OC3C(O)CC(OC4CCC5(C)C(CCC6C5CCC5(C)C(C7=CC(=O)OC7)C(O)CC65O)C4)OC3C)OC2C)OC(C)C1OC1OC(CO)C(O)C(O)C1O (centres undefined)	-48	-31	85*
CCC1(CC(C)C)C(=O)NC(=S)NC1=O	0	0	5
CN1C(=O)C(Cc2ccccc2)C(=O)N(C)C1=O	-3	4	-12
CCCCCN1C(=O)c2cc(OC)ccc2[C@@]2(C(=O)OCC)Cc3cc(OC)ccc3[C@@H]12	-11	-26	30
CC1([N+](=O)[O-])COP(=O)(Nc2cccc(Cl)c2)OC1 (centres undefined)	-1	-4	-1
CN1OC[C@@H]2CN[C@H](c3ccc(Br)cc3)C[C@@H]21	-1	2	-3
CCC1(CCC(C)C)C(=O)NC(=O)N(c2ccccc2)C1=O (centres undefined)	9	3	-19
O=S(=O)(c1cccc2ccccc12)N1Cc2ccccc2-n2nncc2C1	-6	-14	25
CC1C=CCCC12C(=O)NC(=O)NC2=O (centres undefined)	0	0	-4
CC1([N+](=O)[O-])COP(=O)(Nc2ccccc2F)OC1 (centres undefined)	3	5	-2
CC[C@@H](O)C[C@H]1CCC[C@@]2(C[C@@H]3OC(=O)/C=C/[C@@](C)(O)[C@@H](O)[C@H](C)[C@@H](O)[C@H](OC4CCC(N(C)C)C(C)O4)[C@@H](O)[C@](C)(O)CCCCC/C=C/[C@@H]4CC(C)(C)O[C@@]4(O)C[C@H](O2)[C@H]3C)O1 (some centres undefined)	15	-29	35
CC1([N+](=O)[O-])COP(=O)(Nc2ccc(F)cc2)OC1 (centres undefined)	-5	-1	6
CC(C)c1ccc(C(c2c(O)c3ccccc3oc2=O)c2c(O)c3ccccc3oc2=O)cc1	1	0	8
CCOC(=O)[C@]12Cc3ccccc3[C@H]1N(C(C)C)C(=O)c1cc(OC)ccc12	-16	-26	19
Nc1ccc(CC2=NCCN2)cc1	2	8	0
CC12CCC3C(CCCC4CC(=O)CCC43C)C1CCC2O (centres undefined)	3	-1	6
O=C(CF)N(O)c1ccc(C=Cc2ccccc2)cc1	-8	-3	-85

In another format: 2 of the compounds above
Results follow in this order: MT1-MMP act inh | MT1-MMP act inh RFP | Env fusion inh
CC12CCC3C(CCCC4CC(=O)CCC43C)C1CCC2O (centres undefined)
  3 | -1 | 6
O=C(CF)N(O)c1ccc(C=Cc2ccccc2)cc1
  -8 | -3 | -85

(next part)
structure	MT1-MMP act inh	MT1-MMP act inh RFP	Env fusion inh
C1CN(P2(N3CC3)=NP(N3CC3)(N3CC3)=NP(N3CC3)(N3CC3)=N2)CCO1 (centres undefined)	1	4	2
N#Cc1cn(C2OC(CO)C(O)C2O)c2ncnc(N)c12 (centres undefined)	-16	-10	85*
O=C1NC(=O)C(Cc2ccccc2)(Cc2ccccc2)C(=O)N1	3	-6	16
N#CC1c2ccccc2C=CN1C(=O)c1ccc(N(CCCl)CCCl)cc1 (centres undefined)	-6	-3	-12
CC[C@@H]1c2ccccc2[C@@H]2CC[C@H]1N2c1ccccc1	-4	-1	26
Cc1nn(CC(C)C)c(Cl)c1C(=O)NC1CCCCC1	-2	-4	2
O=[N+]([O-])c1oc2ccc3ccccc3c2c1CCO	-2	1	5
CCC1CN1P(=O)(N1CCCC1)N1CC1CC (centres undefined)	2	3	59*

4 compounds out of the list, ordered by count of non-hydrogen atoms, highest first:
structure	MT1-MMP act inh	MT1-MMP act inh RFP	Env fusion inh
COC1CC2C=C(C)C=CC=CC(=O)NC(c3ccccc3)CC=CCCC(O)CC(=O)C2=C1O (centres undefined)	-3	-31	92*
NC(=O)c1c(Br)n(C2OC(CO)C(O)C2O)c2ncnc(N)c12 (centres undefined)	-13	-5	71*
CCC1(CCC(C)C)C(=O)NC(=O)N(c2ccccc2)C1=O (centres undefined)	9	3	-19
CN1OC[C@@H]2CN[C@H](c3ccc(Br)cc3)C[C@@H]21	-1	2	-3

Single records (already shown). Screens in order: MT1-MMP act inh	MT1-MMP act inh RFP	Env fusion inh
Profile of CC1C=CCCC12C(=O)NC(=O)NC2=O (centres undefined) : 0	0	-4
Profile of CC[C@@H]1c2ccccc2[C@@H]2CC[C@H]1N2c1ccccc1 : -4	-1	26

(listing goes on)
structure	MT1-MMP act inh	MT1-MMP act inh RFP	Env fusion inh
O=C1CC(=O)N(Cc2ccccc2)C(=O)N1	-12	5	8
CCOC(=O)[C@]12Cc3cc(Cl)ccc3[C@H]1N(C)C(=O)c1ccccc12	-3	1	25
O=[N+]([O-])/C=C/c1c(Cl)cccc1Cl	4	-1	0
CC(=O)C1CCC2C3CCC4CC(O)CCC4(C)C3C(=O)CC12C (centres undefined)	-3	-3	1
NP(=O)(Nc1ccccc1)Nc1ccccc1	-1	2	-3
C[N+](C)(C)CC1CCCC(C[N+](C)(C)C)C1=O (centres undefined)	-3	-3	8
O=C1NC(=O)C2(CCN(c3ccccc3)CC2)C(=O)N1	7	7	35
CC(=O)OC1C(O)C2=C3C4(C)C1C(C)(C)C(=O)CC4C3(O)C(OC(C)=O)C1(CC1C)C2=O (centres undefined)	-3	-21	4
CC12CCC3C(CCC4(O)CC(O)CCC34C=O)C1(O)CCC2C1=CC(=O)OC1 (centres undefined)	-51	-31	-1
CC1CCOC(=O)C=CC=CC(=O)OC2CC3OC4C5OC5(C)C(O)CC4(COC(=O)C1O)C2(C)C31CO1 (centres undefined)	-40	-35	59*
CCOP(=O)(CCP(=O)(OCC)OCC)OCC.C[CH2][Sn]([Cl])([Cl])[CH2]C	-15	-21	-9
COC1=C(C)C(=O)C2=C(C1=O)C(CO)N1C(C#N)C3CC4C(C1C2N1CCOC41)N3C (centres undefined)	-1	1	67*
CC(C)C[C@@H]1COc2cccc(N3CCN(C)CC3)c2S(=O)(=O)N1	-2	4	-11
O=C1NC(=O)C(=Cc2ccc(Cl)cc2)C(=O)N1	8	6	13
COC(=O)Nc1nc2ccccc2[nH]1	3	-6	i
c1cnc(OCCN2CC2)cn1	-7	2	17
c1ccc2c(c1)cc1ccc3cccc4ccc2c1c34	-24	9	-58
NC(=Nc1ccccc1)NN=Cc1c[nH]c2ccccc12	17	-2	0
O=C1NC(=O)N(Cc2ccccc2)C(=O)C1Cc1ccccc1 (centres undefined)	0	2	-18
